Screening results deposited in PubChem BioAssay by several laboratories.
eIF4H FP inh: inhibitors of RNA binding by human eIF4H; Q15056; inhibition, % at 35 µM; 0.94% of 290,000 active; eIF4H fluorescence polarization binding assay; AID 2012;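 active = 50% or more with normal probe brightness, or confirmed in later tests; inconclusive = above 50% with abnormal brightness, or retests that disagree; inactive = below 50% or failed in later tests; about a fifth of its hits are not listed in these tables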;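 also: calls also rest on retests at 20 µM and on dose response follow-up; 0% = protein and probe with vehicle and 100% = probe without protein; strong numbers were not always called active; many hits fall short of the cut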
HIV Env fusion: blocks HIV Env-driven cell-cell fusion. inhibition, % at 12.3 µM. 1.1% of 360,000 active. HeLa-JRFL Env/CEM21 cell fusion, luciferase. AID 651610;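 active = mean replicate inhibition score of at least 50 and every replicate individually at or above 50; inconclusive = only one of the two criteria met; inactive = mean below 50 and not all replicates reaching 50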;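 also: 0% = plate neutral controls and 100% = maraviroc near 300 nM; one replicate is shown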
MT1-MMP act inh: MT1-MMP (human) activation inhibition | P50281 | HT1080 RFP-PRO-GFP cells, GFP/RFP ratio fluorescence, overnight; percent of plate control window, DMSO zero | GFP/RFP ratio change, % at 20 µM | 0.061% of 360,000 active;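 active = GFP/RFP ratio change of at least 30% with cell ATP level not reduced by more than half and red fluorescence within 50% of control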; also: strong numbers were not always called active
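Test system: HT1080 cells expressing an RFP-PRO-GFP fluorescent reporter construct / Compound dosing: single-point 20 µM compound, 1% DMSO / Schedule: cells overnight before dosing, compound overnight, 37 °C, 5% CO2 / Evaluation: GFP/RFP fluorescence ratio / Control set: DMSO and RFP-L50D-GFP cell wells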
CSC inhib: cancer stem cell inhibition; inhibition, % at 7.5 µM; 1.1% of 300,000 active; AID 2717; cancer stem cell-like cells viability, luminescence;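 active = mean at 75% or more and at least half the replicates too; inconclusive = mean and replicates disagree; tested in HMLE shEcad cells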;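 also: 0% = median of negative and 100% = median of positive control wells; the first replicate is given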
PABP polyA inh: blocks human PABP binding to poly(A) RNA. P11940. fluorescence polarization. inhibition, % at 35 µM. 1% of 290,000 active;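 active = 50% or more with normal probe brightness, or confirmed in later tests; inconclusive = above 50% with abnormal brightness, or retests that disagree; inactive = below 50% or failed in later tests; about a fifth of its hits are not listed in these tables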;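 also: calls also rest on retests at 20 µM and on dose response follow-up; controls were probe without protein and protein plus probe with vehicle; some compounds called inactive have numbers as strong as hits; many hits fall short of the cut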
Target sequence (P11940 whole entry, looked up): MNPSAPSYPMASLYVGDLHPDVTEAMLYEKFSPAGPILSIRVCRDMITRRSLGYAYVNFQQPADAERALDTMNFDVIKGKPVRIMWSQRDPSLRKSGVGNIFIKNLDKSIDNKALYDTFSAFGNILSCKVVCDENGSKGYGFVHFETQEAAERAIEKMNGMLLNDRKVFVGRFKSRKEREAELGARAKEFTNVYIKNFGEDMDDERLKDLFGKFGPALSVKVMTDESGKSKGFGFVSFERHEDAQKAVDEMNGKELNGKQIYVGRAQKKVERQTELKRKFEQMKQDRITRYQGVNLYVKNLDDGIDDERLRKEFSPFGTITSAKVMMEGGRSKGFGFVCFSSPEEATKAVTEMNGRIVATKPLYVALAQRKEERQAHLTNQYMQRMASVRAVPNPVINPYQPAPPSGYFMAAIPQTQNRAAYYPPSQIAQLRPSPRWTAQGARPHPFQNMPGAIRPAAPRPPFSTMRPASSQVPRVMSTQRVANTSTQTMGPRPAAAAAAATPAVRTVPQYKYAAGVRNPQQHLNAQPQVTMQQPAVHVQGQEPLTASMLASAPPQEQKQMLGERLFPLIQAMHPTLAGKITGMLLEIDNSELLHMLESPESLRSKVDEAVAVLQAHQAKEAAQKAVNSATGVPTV
Yeast UUG start: modulators of start codon recognition fidelity in yeast; S. cerevisiae UUG-firefly luciferase reporter, luminescence/redox ratio; activity score, % at 18.7 µM; 0.13% of 350,000 active;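 active = replicate mean at a twofold rise or more, about +100% in these data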;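 also: firefly luciferase made from a UUG start codon reports start codon fidelity; reporter light over untreated wells divided by growth signal over untreated wells; some hits fall short of that in this replicate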
Rce1 inhib: blocks yeast Ras-converting enzyme; Q03530; yeast membranes, quenched prenylated peptide cleavage fluorescence; calls only; 0.27% of 290,000 active;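 active = fall in fluorescence gain of 50% or more versus controls, with final raw signal at or below 3038400; inconclusive = same 50% fall but final raw signal above 3038400; inactive = fall in fluorescence gain under 50%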;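 also: plate controls were neutral control wells for no effect and wells lacking membranes for full effect; tested at 10 µM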
Target sequence (Q03530 whole entry, looked up): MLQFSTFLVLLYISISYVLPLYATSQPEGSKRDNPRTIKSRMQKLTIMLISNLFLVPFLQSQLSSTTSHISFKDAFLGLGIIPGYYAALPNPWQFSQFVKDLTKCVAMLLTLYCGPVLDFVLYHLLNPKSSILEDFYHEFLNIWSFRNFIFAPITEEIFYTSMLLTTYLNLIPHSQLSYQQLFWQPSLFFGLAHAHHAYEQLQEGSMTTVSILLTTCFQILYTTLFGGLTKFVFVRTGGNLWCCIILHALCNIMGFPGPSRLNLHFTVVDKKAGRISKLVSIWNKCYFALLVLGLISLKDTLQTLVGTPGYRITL
eIF4H FP inh retest: further read-out of eIF4H FP inh, marked with its call; inhibition, %; compound at 20 µM; confirmation average;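 mean of two retest wells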
PABP polyA inh retest: second read-out of PABP polyA inh, no call of its own (marks repeat the call); inhibition, %; compound at 20 µM; confirmation repeats;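 mean of two retest wells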
MT1-MMP act inh RFP: further read-out of MT1-MMP act inh, marked with its call; RFP signal change, %; measured here: RFP expression control read;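 0 = vehicle wells; hits needed this value within 50% of zero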
Active calls of the source: *; i = inactive; ? = inconclusive; . = not tested or not shown. An unsorted share of the library; about 2.9% have a hit in one of these screens.

SMILES	eIF4H FP inh	HIV Env fusion	MT1-MMP act inh	MT1-MMP act inh RFP	CSC inhib	PABP polyA inh	Yeast UUG start	Rce1 inhib	others
COC(=O)c1sc(NC(=O)c2cccc([N+](=O)[O-])c2)c(C(N)=O)c1C	1	2	-5	-5	3	-1	-15	i
CCOC(=O)c1ccc(NC(=O)CS(=O)(=O)c2cn(CC)c3ccccc23)cc1	-8	-71	2	1	1	-4	-8	.
COC(=O)c1cn(C(=O)c2ccc(C)c(C)c2)c2ccccc12	-10	0	-1	-4	19	-6	.	i
Cc1cc(C(C)(C)C)ccc1OCCN(C)C	-4	.	-1	2	-1	10	-6	i
O=[N+]([O-])c1ccc(C[n+]2cccc3ccc4cccnc4c32)cc1	46	-7	-1	-8	-7	-16	.	i
CCOC(=O)c1ccc(NC(=O)c2nc[nH]c2C(=O)NC)cc1	4	-1	2	0	19	2	-16	i
Cc1cc(-c2cc(C(=O)NCc3ccccc3)on2)nc(NC2CCCC2)n1	-9	2	7	-6	-6	5	-18	i
Cn1nc(-c2ccc(C(=O)Nc3cccc(Cl)c3)cc2)c2ccccc2c1=O	-3	-89	3	-8	4	0	-17	i
Cc1cccc(CC(=O)OCn2nnc3ccccc3c2=O)c1	2	?	-3	5	-5	6	-16	i
OCCN(CC#CC(O)(c1ccccc1)C1CCCCC1)CCO (stereo not given)	-1	25	1	0	.	-2	6	i
Nc1nc2c(s1)CCCCCCCCCC2	-6	-1	11	1	-13	6	0	i
O=C(CN1CCN(S(=O)(=O)c2ccc(Cl)cc2)CC1)N1CCCC1	.	-4	-4	1	.	.	-3	.
Cc1cc(C)c(NC(=O)Nc2ccc3c(c2)OCO3)c(C)c1	11	-12	1	-2	1	2	-18	i
CCCCNS(=O)(=O)c1ccc2nc(SCC(=O)c3ccc(C#N)cc3)[nH]c2c1	-14	.	2	-4	.	1	-8	i
COc1ccc(NC(=O)COc2ccc(-n3cnnn3)cc2)cc1OC	.	10	5	-2	.	.	-13	.
COc1ccc2nc(NC(=O)CN(C)S(=O)(=O)c3cccs3)sc2c1	-3	8	17	-7	2	4	0	i
O=C(NCCc1ccccc1)C(=O)NCC1OCCN1S(=O)(=O)c1ccc(F)cc1 (stereo not given)	1	.	3	2	-2	-6	-23	i
CCN(CC)S(=O)(=O)c1cccc(NC(=O)C(=O)c2c(-c3ccccc3)cc3ccccn23)c1	-12	-41	1	-9	14	-6	7	i
COc1ccccc1CCNC(=O)c1cc(-c2ccccn2)nc2ccccc12	.	0	0	0	.	.	-16	.
CCOc1ccc(NC(=O)Nc2cc(C(C)C)c(O)cc2C)cc1	9	-6	-1	-2	-2	12	-9	i
CCOCCCNS(=O)(=O)c1ccc(NC(=O)N2c3ccccc3Sc3ccccc32)cc1	8	.	8	-9	.	6	-15	i
c1csc(C(c2nnnn2C2CCCCC2)N2CCN(c3nc4ccccc4s3)CC2)c1 (stereo not given)	-7	-11	1	-8	.	0	-4	i
O=C1NC(NS(=O)(=O)c2ccccc2)(C(F)(F)F)C(=O)N1Cc1cccnc1 (stereo not given)	-4	19	2	-1	0	7	-15	i
NC(=O)[C@H](Cc1cc2ccccc2s1)NC(=O)[C@@H]1CC2(CC(c3cccc(NC(=O)[C@@H]4CCC(=O)N4)c3)=NO2)CN1C(=O)/C=C/c1c(F)cccc1Cl (stereo not given in full)	-4	.	3	1	-1	0	-9	i
COc1cccc(NC(=O)C2(C)CCCN2C(=O)C(C)C)c1OC (stereo not given)	.	-43	1	-1	.	.	-13	.

Other records follow.
SMILES	eIF4H FP inh	HIV Env fusion	MT1-MMP act inh	MT1-MMP act inh RFP	CSC inhib	PABP polyA inh	Yeast UUG start	Rce1 inhib	others
Cc1ccc(CCN2CC(C(=O)NC(C)C)CC2=O)cc1 (stereo not given)	2	7	3	5	.	0	-19	i
Cc1cccc(C)c1NC(=S)N1CC(C)OC(C)C1 (stereo not given)	3	2	-2	3	5	-4	.	i
N#Cc1ccc(CN(c2ccncc2)S(=O)(=O)c2ccccc2)cc1	-18	-7	-4	-1	-1	-8	-9	i
CCCN=Cc1ccc(O)cc1	-11	14	1	3	-5	2	.	i
CCCCOc1ccc(CC2CCC(=O)NC2=O)cc1 (stereo not given)	22	2	1	2	-2	-10	.	i
CC(=O)c1c(C)[nH]c(C(=O)NCc2ccc(F)cc2)c1C	-1	18	4	3	-6	8	-6	i
O=C(O)c1ccc2c(=O)n3c(nc2c1)/C(=C/c1ccccc1OC(F)F)CC3	4	-5	2	-1	3	7	-4	i
Cc1ccc(C(=O)N2CCN(CCNC(=O)C(=O)Nc3ccc(Cl)cc3)CC2)cc1	2	15	0	-10	.	7	4	i
O=C1CC(c2ccco2)CC(O)=C1C=Nc1cc(Cl)ccc1O (stereo not given)	92*	0	0	4	.	77*	-14	i
Cc1ccc2c(cnn2C(=O)CCC(=O)NCc2ccccc2Cl)c1	-2	1	0	0	.	2	-16	i
COc1cc(CN2C[C@@H](CO)O[C@@H](n3cnc4c(N(C)C)ncnc43)C2)cc(OC)c1OC	.	-10	6	8	.	.	3	.
COC(=O)C1=C(C)N(C(C)c2ccccc2)C(=O)/C1=C\c1ccco1 (stereo not given)	1	-3	-3	6	-7	10	.	i
O=C(Nc1ccc2c(c1)OCO2)c1cc(C2CCCCN2C(=O)c2ccccc2)on1 (stereo not given)	.	8	2	0	.	.	-5	.
O=C(NC1CC1)c1ccc(CS(=O)(=O)c2c(Cl)cccc2Cl)o1	0	-315	0	3	.	-6	-3	i
Cc1ccc(C)c(SCc2noc(C(=O)NCC3CCCO3)c2C(=O)O)c1 (stereo not given)	-10	-9	-1	1	-1	-4	-6	i
COc1ccc(CNC(=O)C(c2ccco2)N(Cc2ccccc2)C(=O)Cc2cccs2)cc1 (stereo not given)	-4	36	-3	-5	3	0	11	i
Cc1ccc(NC(=O)COC(=O)[C@H](C)NC(=O)c2ccccc2)cc1S(=O)(=O)N1CCOCC1	-7	-2	2	5	6	11	6	i
OC[C@@H]1CN(Cc2cccs2)C[C@H](n2cnc3c(N4CCN(c5ccccc5)CC4)ncnc32)O1	.	7	0	-6	.	.	10	.
COC(=O)C1=C(C)N(C)C(C)=C(C(=O)OC)C1c1ccc(C(=O)OC)cc1	-14	.	9	10	-1	4	-8	.
O=C(CSc1nnc(-c2c[nH]c3ccccc23)o1)N(Cc1ccccc1)c1ccc(F)cc1	-4	.	-30	-23	26	6	-19	i
C=CCN(C(=O)c1csnn1)C(C(=O)NC1CCCC1)c1ccccc1 (stereo not given)	-8	-24	-1	2	-10	2	-15	i
COc1ccc(NC(=O)COc2coc(CN3CCc4ccccc43)cc2=O)cc1	.	-10	-4	-2	1	.	-15	i
COc1ccc(CNC(=O)CCS(=O)(=O)Cc2cccc(Cl)c2)c(OC)c1	0	14	-1	-3	4	-3	-13	i
O=C(NCc1ccc(C(F)(F)F)cc1)C1CC(c2cccc(F)c2)=NO1 (stereo not given)	-8	9	1	2	50	-8	-11	i
Cc1ccc(NC(=O)C2CCCN(C3=NS(=O)(=O)c4ccccc43)C2)c(O)c1 (stereo not given)	.	.	-12	3	-14	.	14	.

Following part.
SMILES	eIF4H FP inh	HIV Env fusion	MT1-MMP act inh	MT1-MMP act inh RFP	CSC inhib	PABP polyA inh	Yeast UUG start	Rce1 inhib	others
N#Cc1c(SCc2ccccc2)sc(C(=O)c2ccccc2)c1N	2	.	0	4	8	50	-13	i	eIF4H FP inh retest=-4;PABP polyA inh retest=-4
Cc1cc(NC(c2ccc(Cl)cc2)c2ccc3cccnc3c2O)no1 (stereo not given)	25	.	-1	-12	101*	-2	-31	i
O=C1N=C(O)CN1/N=C/c1ccc(-c2ccc([N+](=O)[O-])cc2)o1	.	.	2	4	-6	.	4	i
C/C=C(\C)CN1CCc2cc(OC)c(OC)cc2C1	-2	3	-4	0	0	4	-10	i
COc1ccc(NC(=O)/C(C#N)=C\c2ccc(-c3cc(C(=O)O)ccc3C)o2)cc1	79*	7	-7	-2	5	67*	-4	i
O=C(C[C@H]1C/C=C\CC[C@H](Cc2ccc(F)cc2)C(=O)O[C@H](c2ccccc2)CNC1=O)N[C@H](CO)Cc1ccccc1	.	-33	-1	-3	-7	.	0	.
CCOc1ccc2c(c1)-c1c(ssc1=S)C(C)(C)N2C	-2	.	6	-8	.	11	-18	i
N#CCCN(CCC#N)c1nnc(-c2ccccc2)s1	-8	.	7	2	-5	3	-6	i
COc1ccc(C(=O)OCC(=O)NCc2ccc3c(c2)OCO3)cc1[N+](=O)[O-]	-5	-148	-2	2	-3	-3	-1	i
CCOc1cc(CNc2ncc(-c3ccc(OC)cc3)n2C)ccc1O	-6	-15	0	-1	-11	4	-11	i
O=C(c1cc2cc(F)ccc2[nH]1)N1CCN(c2ccc(F)cc2)CC1	0	-77	2	-2	-4	2	-9	i
COc1ccccc1CNC(=O)C1(C)CCCCN1C (stereo not given)	.	9	5	6	.	.	-21	.
Cc1ccc(SCCC(=O)N(C)C)cc1	-9	.	-1	1	-2	-4	-3	i

Among those listed so far, these contain an aryl methoxy group.
SMILES	eIF4H FP inh	HIV Env fusion	MT1-MMP act inh	MT1-MMP act inh RFP	CSC inhib	PABP polyA inh	Yeast UUG start	Rce1 inhib	others
COc1ccc(NC(=O)COc2ccc(-n3cnnn3)cc2)cc1OC	.	10	5	-2	.	.	-13	.
COc1ccc2nc(NC(=O)CN(C)S(=O)(=O)c3cccs3)sc2c1	-3	8	17	-7	2	4	0	i
COc1ccccc1CCNC(=O)c1cc(-c2ccccn2)nc2ccccc12	.	0	0	0	.	.	-16	.
COc1cccc(NC(=O)C2(C)CCCN2C(=O)C(C)C)c1OC (stereo not given)	.	-43	1	-1	.	.	-13	.
COc1cc(CN2C[C@@H](CO)O[C@@H](n3cnc4c(N(C)C)ncnc43)C2)cc(OC)c1OC	.	-10	6	8	.	.	3	.
COc1ccc(CNC(=O)C(c2ccco2)N(Cc2ccccc2)C(=O)Cc2cccs2)cc1 (stereo not given)	-4	36	-3	-5	3	0	11	i
COc1ccc(NC(=O)COc2coc(CN3CCc4ccccc43)cc2=O)cc1	.	-10	-4	-2	1	.	-15	i
COc1ccc(CNC(=O)CCS(=O)(=O)Cc2cccc(Cl)c2)c(OC)c1	0	14	-1	-3	4	-3	-13	i
C/C=C(\C)CN1CCc2cc(OC)c(OC)cc2C1	-2	3	-4	0	0	4	-10	i
COc1ccc(NC(=O)/C(C#N)=C\c2ccc(-c3cc(C(=O)O)ccc3C)o2)cc1	79*	7	-7	-2	5	67*	-4	i
COc1ccc(C(=O)OCC(=O)NCc2ccc3c(c2)OCO3)cc1[N+](=O)[O-]	-5	-148	-2	2	-3	-3	-1	i
CCOc1cc(CNc2ncc(-c3ccc(OC)cc3)n2C)ccc1O	-6	-15	0	-1	-11	4	-11	i
COc1ccccc1CNC(=O)C1(C)CCCCN1C (stereo not given)	.	9	5	6	.	.	-21	.
